# Screening results: PubChem, National Center for Advancing Translational Sciences (NCATS)
# AmpC inh no det – AmpC beta-lactamase inhibition, detergent-free assay. P00811. AmpC nitrocefin hydrolysis, absorbance 480 nm, no detergent; potencies from a single point are estimates. Potency, µM (top dose mostly 28.7 µM), for the others: at the top dose activity change, negative = inhibition. 71,000 compounds, 1.8% hits; active = falling curve, for most hits resting on a single point; inconclusive = weak or doubtful change; inactive = flat or rising curve; further: % of control where 0% means no effect; about half of the hits show no inhibition at the top dose; a quarter of the inactives give rising signals
# Target sequence (P00811 whole entry, looked up): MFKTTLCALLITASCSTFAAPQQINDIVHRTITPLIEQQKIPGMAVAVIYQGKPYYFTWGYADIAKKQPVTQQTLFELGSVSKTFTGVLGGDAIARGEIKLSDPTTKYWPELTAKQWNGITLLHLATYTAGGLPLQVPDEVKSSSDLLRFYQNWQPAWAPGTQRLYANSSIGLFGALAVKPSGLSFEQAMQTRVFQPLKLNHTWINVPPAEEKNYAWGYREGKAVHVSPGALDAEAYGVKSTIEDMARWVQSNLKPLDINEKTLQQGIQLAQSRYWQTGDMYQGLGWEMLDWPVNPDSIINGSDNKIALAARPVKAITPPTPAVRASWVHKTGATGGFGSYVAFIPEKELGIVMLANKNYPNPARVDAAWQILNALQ
#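 AmpC in 20 mM phosphate buffer pH 7.0 was preincubated 15 min at room temperature with compounds. Nitrocefin (800 uM stock) was then added and hydrolysis followed at 480 nm every 20 s for 4 min.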
# * = called active by the depositor; ? = inconclusive; & = joins results of further samples; [ ] = dose if it differs, or a comment. Potency means the concentration at half of the fitted maximal effect.
SMILES,AmpC inh no det
COc1ccccc1-c1ccc2ncnc(NCc3cnc(C)cn3)c2c1,131%
O=C(Nc1ccc2c(c1)OCO2)N1CCN(c2ncccn2)CC1,-11%
C#CCOC(=O)CCCC(=O)Nc1ccccc1OC,-3%
CC(=O)N1CCC[C@@]2(CCN(c3ncccn3)C2)C1,93%
CCCCc1cc(O)c(CCCC)c(O)c1,?
O=C(NCc1ccco1)c1c(O)c2cccc3c2n(c1=O)CCC3,-11%
COc1ccccc1NC(=O)c1nnn(CC(=O)Nc2ccccc2)c1N,-22%
N#Cc1cccc(NC(=O)N2CCCC3(CCN(C(=O)c4ccco4)CC3)C2)c1,36%
CC(C)OC(=O)CCC(=O)Nc1nc2ccccc2s1,2%
CC(=O)Nc1cccc(C(=O)N2CCN(Cc3ccccc3)CC2)c1,16%
CC(C)CN1CC[C@@]2(CCCN(C(=O)c3ccco3)C2)C1,61%
COc1cccc(S(=O)(=O)Nc2ccc3sc(C)nc3c2)c1,5%
Cc1cc(C)n(-c2cc(N3CCOCC3)nc(-c3ccccc3)n2)n1,126%
CCNC(=O)c1c(O)c2cccc3c2n(c1=O)CC3,36%
O=C1c2ccccc2C(=O)N1CC1=CCS(=O)(=O)C1,9%
CC[C@H](NC(C)C)[C@H](O)c1ccc(O)c(O)c1,-1%[12.8 µM]
CC(C)NC(=O)CCCc1ccccc1,-5%
Cc1cccc(CN(C)C)c1OC(=O)N(C)C,-7%
CCN(CC)CCCNC(=O)c1cc(-c2ccc(O)cc2)on1,-1%
CC(C)(C)c1nc2ccccc2c2nnc(SCC(=O)NCc3ccco3)n12,58%
CC(=NCCN1CCCCC1)c1c(O)[nH]c(=O)[nH]c1=O,-3%
Cc1ccc(C)cc1,1%
CCCC(=O)Nc1ncnc2c1ncn2[C@@H]1O[C@H]2COP(=O)(O)O[C@@H]2[C@@H]1OC(=O)CCC,5%[12.8 µM]
C=CCNc1ncnc2c1cnn2-c1cccc(C)c1,14%
CCOC(=O)CNC(=O)CSc1nnc(SCC(=O)NCC(=O)OCC)s1,2%

# New compounds follow:
SMILES,AmpC inh no det
CN1CCN(c2nc(-c3cccc(NS(C)(=O)=O)c3)nc3ccccc23)CC1,66%
CCOC(=O)C1CCCN(Cc2cc(Br)c(OC)cc2OC)C1 (stereo not drawn),6%
COCCCNC(=O)c1cc2c(-c3ccc(Cl)cc3)nn(C)c2s1,143%
Cc1c(C(=O)N2CCN(C)CC2)oc2c1C(=O)CC(C)(C)C2,-8%
Cc1noc(C)c1-c1nccc(NCc2cccs2)n1,-13%
O=C1CC(c2ccco2)CC(O)=C1C=NCC1NCCc2ccccc21 (stereo not drawn),-15%
Cc1nc2cncnc2n(Cc2ccccc2Cl)c1=O,18%
N#Cc1cccc(NC(=O)N2CCCC3(CCN(C(=O)c4cc(C(F)(F)F)cc(C(F)(F)F)c4)CC3)C2)c1,53%
COc1ccc(CN2CCN(c3ccccc3F)CC2)c(OC)c1,13%
O=C(Cn1nnc2ccccc2c1=O)Nc1ccc2c(c1)CCC2,-5%
COc1ccc(CNc2ncnc3ccc(-c4ccc(C(=O)N(C)C)cc4)cc23)c(OC)c1,116%
COc1cc2c(cc1OC)[C@@]13CCN4C=C5CCO[C@H]6CC(=O)N2[C@@H]1[C@@H]6[C@H]5C[C@H]43,9%[5.75 µM]
Cc1cc2n(n1)C(c1sccc1C)Nc1c(C)cccc1-2 (stereo not drawn),72%
O=C(C1CCCO1)N1CCC(c2nc3ccccc3[nH]2)CC1 (stereo not drawn),5%
O=C(c1ccc2c(=O)n(CC3CCCO3)c(=S)[nH]c2c1)N1CCN(c2ccccc2)CC1 (stereo not drawn),56%
COc1cccc(-n2nnc3c(=O)n(CC(=O)N4CCCCC4)cnc32)c1,5%
COc1cc(OC)c(C(=O)Nc2ncn[nH]2)cc1OC,-5%
COc1ccc(N2CC(C(=O)Nc3ccc(N4CCOCC4)cc3)CC2=O)cc1 (stereo not drawn),9%
CCOC(=O)CSc1nnc(-c2ccc(Cl)cc2Cl)o1,13%
Cc1cccc(NC(=O)CCN2CCN(C/C=C/c3ccccc3)CC2)c1,101%
O=C(NCc1cccs1)c1cnc2sccn2c1=O,-1%
CCOC(=O)CNC(=O)CSc1nnc(Cn2cnc3ccccc32)n1C,-8%
COc1ccc(C(=O)NC(C)c2nnc(SCC(=O)Nc3nc4ccccc4s3)n2C)cc1 (stereo not drawn),105%
CC(C)C(c1nnnn1Cc1ccc(F)cc1)N1CCSCC1 (stereo not drawn),13%
CCCC(C)(C)NC(=O)CCCCC(=O)NC(C)(C)CCC,30%

# Fetched by compound from the list above (two):
SMILES,AmpC inh no det
COc1cccc(S(=O)(=O)Nc2ccc3sc(C)nc3c2)c1,5%
Cc1cc2n(n1)C(c1sccc1C)Nc1c(C)cccc1-2 (stereo not drawn),72%

# A different layout for three compounds above.
canonical_smiles	AmpC inh no det
COc1ccc(C(=O)NC(C)c2nnc(SCC(=O)Nc3nc4ccccc4s3)n2C)cc1 (stereo not drawn)	105%
CC(C)C(c1nnnn1Cc1ccc(F)cc1)N1CCSCC1 (stereo not drawn)	13%
CCCC(C)(C)NC(=O)CCCCC(=O)NC(C)(C)CCC	30%

# Next entries.
SMILES,AmpC inh no det
COC(=O)C1=C(C)n2cnnc2NC1c1ccc(Cl)cc1 (stereo not drawn),10%
O=CN1CCC(=O)N(Cc2ccccc2)c2ccccc21,-5%
COc1cc(OC)cc(C(=O)OCn2nnc3ccccc3c2=O)c1,14%
CC(=O)c1ccc(-n2nncc2C)cc1,0%
CCS(=O)(=O)NCCc1cc2c(OC)ccc(OC)c2[nH]c1=O,17%
Cc1nc(NC(=O)c2cccnc2)ccc1Br,10%
O=C(CCCn1c(SCC(=O)c2ccc(O)c(O)c2)nc2ccccc2c1=O)NCC1CCCO1 (stereo not drawn),3%
Cn1c(=O)cc(OCC(=O)N2CCN(c3cccc(C(F)(F)F)c3)CC2)c2ccccc21,150%
CCOC(=O)C1=C(C)NC(C)=C(C(=O)OCC)C1C(=O)OCC(=O)c1ccc2c(c1)OCCO2,84%
O=C(NCCn1ccc2ccccc21)c1ccc2c(c1)OCO2,6%
Cc1csc2nc(CCNS(=O)(=O)c3ccc4c(c3)OCCO4)cn12,-6%
CN(C)c1ncc2ncc(=O)n(C3CC3)c2n1,4%
O=C(CCc1nc(-c2ccccc2F)no1)NC1CCCCCC1,13%
CCCCN1C(=O)c2ccc(C(=O)Nc3c(N)n(CCCC)c(=O)n(C)c3=O)cc2C1=O,31%
CCCn1c(SCc2cc(=O)oc3ccc4ccccc4c23)n[nH]c1=O,26%
COc1cccc(/C=N/n2c(C)c3c(C)nnc(C)c3c2C)c1O,24%
CSc1cccc(NS(=O)(=O)c2ccccc2)c1,-20%
CCOC(=O)c1ccc(NC(=O)COc2ccc(S(=O)(=O)NC(C)C)cc2)cc1,2%
Cc1cccc(OCC(=O)N(Cc2cccs2)C2CCS(=O)(=O)C2)c1C (stereo not drawn),62%
O=C(Cn1cccc1C(=O)c1ccccc1)NCCN1CCOCC1,-9%
CCC1CCCCN1C(=O)CSc1nc2c([nH]c3ccccc32)c(=O)n1C (stereo not drawn),88%
CC(=O)c1c(C)nc2ccccc2c1N,38%
CCn1c(SCC(=O)Nc2nc3c(s2)CCCC3)nnc1-c1ccccc1,82%
Cc1ccc2nnc(Cl)n2n1,24%
Cc1ccc(-c2nn(C)c(=O)c3ccccc23)cc1CO,2%

# More compounds
SMILES,AmpC inh no det
Cn1c(=O)[nH]c(=O)c2c1nc(NCCCO)n2Cc1ccc(F)cc1,0%
COc1cc2nc(CC(C)C)n(NC(=O)c3ccccc3)c(=O)c2cc1OC,42%
O=C1CC(C2CCCO2)C(=O)N1Cc1ccccc1 (stereo not drawn),18%
COc1cccc(C(c2sc3nc(C)nn3c2O)N2CCN(C(=O)c3ccco3)CC2)c1 (stereo not drawn),-3%
CCOC(=O)COc1c(OC)cc(Cl)cc1C1NC(=O)NC(C)=C1C(C)=O (stereo not drawn),-2%
CCOCCCn1c(=N)c(C(=O)Nc2cc(C)on2)cc2c(=O)n3ccccc3nc21,12%
Cn1c(=O)c2c(nc(NC3CCCCC3)n2Cc2ccccc2)n(C)c1=O,12%
CCC(c1nnnn1CCC(C)C)N1CCC(C(N)=O)CC1 (stereo not drawn),1%
O=C(OCn1nnc2ccccc2c1=O)c1ccc(S(=O)(=O)N2CCOCC2)cc1,54%
COC(=O)[C@H](CCSC)NC(=O)Nc1ccc(OC)c(Cl)c1,-8%
Cc1cc(NC(=O)CCC(=O)N(c2cccnc2)C(C(=O)NC2CCCC2)c2ccccc2F)no1 (stereo not drawn),13%
Cc1cnc(CNc2nc(-c3ccoc3)nc3ccccc23)cn1,41%
O=C(Nc1ccncc1)C1CCCN(S(=O)(=O)c2cccc3cccnc23)C1 (stereo not drawn),8%
Cc1cc(C)n(-c2nnc(C)n2/N=C/c2ccccc2OCc2ccccc2Cl)n1,58%
O=C(OCC(=O)N1CCN(C(=O)c2ccco2)CC1)c1ccccc1OCc1ccccc1,101%
C=CCSc1nc2c(c(=N)n1CC=C)C1CCCC1S2 (stereo not drawn),21%
CC(=O)Nc1cccc(OCC(=O)NS(=O)(=O)c2ccc(C)cc2)c1,3%
Cc1csc(N(C)C(=O)CSc2nnc(COc3cccc4ccccc34)o2)n1,78%
Cc1c(O)c(CN2CCCC2)cc2c3c(c(=O)oc12)CCC3,-18%
Cc1cc(C)n2nc(C(=O)Nc3ccccc3N3CCOCC3)nc2n1,6%
CCC(=O)N1Cc2ccccc2-c2ccccc2C1=O,-4%
COc1cc(C(=O)OC(C)CN2CCCC2)cc(OC)c1OC (stereo not drawn),-9%
CC(NS(=O)(=O)c1ccc(OCC(=O)N2CCOCC2)cc1)c1ccccc1 (stereo not drawn),19%
COc1ccc(CN2CCCCC2C(=O)Nc2ccc(OC)c(OC)c2)cc1OC (stereo not drawn),26%
N#CCCCl,-7%&0%

# 7 entries from above, as tab-separated lines.
smiles	AmpC inh no det
COc1ccc(CNc2ncnc3ccc(-c4ccc(C(=O)N(C)C)cc4)cc23)c(OC)c1	116%
COc1cc2c(cc1OC)[C@@]13CCN4C=C5CCO[C@H]6CC(=O)N2[C@@H]1[C@@H]6[C@H]5C[C@H]43	9%[5.75 µM]
Cc1cc2n(n1)C(c1sccc1C)Nc1c(C)cccc1-2 (stereo not drawn)	72%
O=C(C1CCCO1)N1CCC(c2nc3ccccc3[nH]2)CC1 (stereo not drawn)	5%
O=C(c1ccc2c(=O)n(CC3CCCO3)c(=S)[nH]c2c1)N1CCN(c2ccccc2)CC1 (stereo not drawn)	56%
COc1cccc(-n2nnc3c(=O)n(CC(=O)N4CCCCC4)cnc32)c1	5%
COc1cc(OC)c(C(=O)Nc2ncn[nH]2)cc1OC	-5%

# Other results follow:
SMILES,AmpC inh no det
CCOC(=O)CSc1nc2c(c(=O)[nH]c(=O)n2C)n1CCCc1ccccc1,22%
COc1ccc(-c2noc(C3CCCN(C(=O)c4cccs4)C3)n2)cc1 (stereo not drawn),59%
COc1ccc(NC(=O)CN2CCC(C(N)=O)CC2)cc1,-5%
COc1ccc(OC)c(NC(=O)CSc2nc3ccccc3c(=O)n2CCNC(C)=O)c1,153%
O=C(Cc1cn2ccsc2n1)Nc1cccc2cnccc12,-6%
CC1=C(C(=O)Nc2ccccc2)C(c2ccc(C)o2)n2ncnc2N1 (stereo not drawn),-5%
COc1ccc(N(C)S(=O)(=O)c2ccc3c(c2)CCC(=O)N3)cc1,-2%
CCN(c1ccccc1)S(=O)(=O)c1ccc(Oc2ccc(-n3ccnc3)cc2)nc1,61%
CCOC(=O)c1c(NC(=O)c2ccco2)sc2c1CCCC2,-8%
CC1(C)CC[C@]2(C(=O)O)CC[C@]3(C)C(=CC[C@@H]4[C@@]5(C)CC[C@H](O)C(C)(C)[C@@H]5CC[C@@]43C)[C@@H]2C1,-13%
c1ccc(-c2nnc(CSc3nc4ccccc4[nH]3)o2)cc1,2%

# This is a subset; the hit share may differ from the screen's.
